# Screening results (PubChem BioAssay)
# UCH37 inh – human UCH37 deubiquitinating enzyme inhibition; Q9Y5K5; purified proteasome/UCH37, Ub-AMC cleavage fluorescence; inhibition, % (no concentration beside the values); actives 0.33% (n = 330,000); AID 588478;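 active means mean of two replicates above 20%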;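 further: 0% = compound-free wells with enzyme and 100% = wells lacking proteasome; stock transfer was 100 nL into about 20 µL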
# Target sequence (Q9Y5K5 whole entry, looked up): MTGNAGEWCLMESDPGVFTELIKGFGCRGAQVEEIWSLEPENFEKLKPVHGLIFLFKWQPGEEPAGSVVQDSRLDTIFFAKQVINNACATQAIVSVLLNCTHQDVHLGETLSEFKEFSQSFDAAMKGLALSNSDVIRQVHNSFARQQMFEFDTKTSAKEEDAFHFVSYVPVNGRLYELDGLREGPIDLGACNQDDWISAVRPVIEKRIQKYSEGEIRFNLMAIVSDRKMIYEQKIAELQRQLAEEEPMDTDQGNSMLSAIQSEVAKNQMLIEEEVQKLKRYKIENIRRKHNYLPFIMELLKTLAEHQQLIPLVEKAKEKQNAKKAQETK
#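 Signal – fluorescence, ex 355 nm, em 460 nm · System – Proteasome-bound UCH37 · Input – 0.15 nM proteasome as dispensed · Timing – 30 min preincubation with enzyme, 25 min cleavage at room temperature · Read-out basis – percent inhibition of cleavage signal versus uninhibited and no-proteasome wells · Medium – Tris-HCl pH 7.4 with ATP-MgCl2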
# E coli growth – E. coli growth inhibition; Escherichia coli growth, OD600, 23 h; stronger effect = lower value; OD600 absorbance (test concentration not listed); actives 0.21% (n = 330,000);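 active means OD600 absorbance below the run mean of sample wells minus 3.6 SD, in any replicate, cut at about 0.56 in these data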;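 further: stock transfer was 300 nL into about 60 µL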
# * marks the source's active call; other numbers are inactive results. Only part of the results is shown. The share of hits here may be higher or lower than overall.
SMILES,UCH37 inh,E coli growth
COc1ccc(CC(=O)NN=Cc2cc(Br)c(O)c(Br)c2)cc1,-19,0.7
O=C(CN1C(=O)NC2NC(=O)NC21)NN=Cc1ccccc1O (stereo not given),-56,0.69
COc1ccc(C(C)=NNC(=O)c2ccccc2OCc2ccccc2)c(OC)c1,-18,0.67
COc1ccc(C=NNC2=NCCCCC2)c(OC)c1,2.0,0.72
O=C(O)c1ccc(-n2cccc2C=NNC(=O)c2cc3cc(Br)ccc3o2)cc1,6.7,0.71
O=C(NN=Cc1ccc([N+](=O)[O-])o1)c1cn(-c2ccccc2)nc1-c1ccc(F)cc1,5.0,0.72
NC(N)=NN=Cc1ccccc1,3.2,0.66
CC(Oc1ccc(Cl)cc1Cl)C(=O)NN=C1CCCc2ccccc21 (stereo not given),4.0,0.71
Cn1c(=O)n(C)c2cc(C=NNC(=O)c3cccc(Br)c3)ccc21,-37,0.72
CNC(=S)NN=Cc1ccc2c(c1)OCCO2,3.0,0.7
O=C(NN=Cc1cccnc1)c1ccc([N+](=O)[O-])cc1,5.4,0.66
Cc1csc(NN=Cc2ccccn2)n1,7.4,0.6
CCOc1ccc(Br)cc1C(=O)NN=Cc1cccnc1,1.4,0.71
Cc1cc(C)nc(N=C(N)Nc2ccc(-c3ccccc3)cc2)n1,3.3,0.53*
CCOC(=O)c1ccccc1OCc1cc(C=Nn2cncn2)ccc1OC,0.7,0.69
O=C1NCC(c2ccccc2)C1C(=O)NN=Cc1ccc(Cl)s1 (stereo not given),4.4,0.69
O=C(NN=Cc1ccc(C(=O)O)cc1)C(=O)N1CCCCCC1,2.3,0.68
O=C(NN=Cc1c[nH]c2ccccc12)c1ccc(Br)cc1,-2.8,0.66
CCOC(=O)COc1ccccc1C=NO,2.9,0.69
CC(C)(C)c1cc(C(=O)NN=Cc2ccccc2O)n(-c2ccccc2)n1,-16,0.67
O=C1CSC(=S)N1N=Cc1cccnc1,10,0.65
Cc1ccc(CN2CCN(CC(=O)NN=Cc3ccccc3F)CC2)cc1,3.6,0.62
COc1ccc(C(=O)ON=Cc2ccc(S(=O)(=O)c3ccc(Cl)cc3)nc2)cc1,-6.0,0.69
CC(C)C(=O)Nc1ccccc1C(=O)NN=Cc1ccc([N+](=O)[O-])cc1,6.6,0.71
CCOC(=O)C1(CC(C)=NNC(N)=O)CC(C)OC1=O (stereo not given),0.2,0.69
CCCCn1c(=O)c(C(=O)NN=Cc2ccc(F)cc2)c(O)c2ccccc21,-2.8,0.67
COc1ccc(S(=O)(=O)NN=C(C)c2ccco2)cc1,1.8,0.67
CC(C)(C)c1ccc(OCC(=O)NN=CC2CC=CCC2)cc1 (stereo not given),-0.1,0.72
Clc1ccc(CONC=Nc2ncnc3sccc23)c(Cl)c1,0.1,0.71
CC(=NNC(=O)c1ccccc1O)c1ccc(Br)s1,15,0.6
CC1=CCC(C(=O)O)(C(=O)NN=Cc2cccs2)C(c2ccc(F)cc2)C1 (stereo not given),1.9,0.68
CCOC(=O)N=C(NC(=O)Nc1ccc(C(=O)OCC)cc1)OC,3.4,0.77
CN(C)c1ccc(C=NNC(=O)CNC(=O)/C=C/c2ccco2)cc1,-40,0.66
O=c1c(=Cc2ccco2)sc2nc(-c3ccccc3Br)nn12,4.5,0.76
C/C(C=NNc1ncc(C)c(=O)[nH]1)=C\c1ccccc1,4.9,0.63
CN(C)c1ccc(C=NNC(=O)c2nnn(-c3nonc3N)c2CN(C)c2ccccc2)cc1,-20,0.7
Cc1ccc(C=NNC(=O)c2c[nH]c3ccccc23)s1,2.6,0.66
O=C(NN=Cc1ccncc1)c1cc(-c2ccc(Br)s2)[nH]n1,1.0,0.58
CC(=NNC(=O)c1cccc(NN=C(C)c2cc(O)ccc2O)c1)c1cc(O)ccc1O,35*,0.7
CCC(=NNC(=O)COc1ccc(Br)cc1)c1ccc(OC)c(OC)c1,1.9,0.65
Cc1ccc(C=NNC(=O)Cn2c(C)nc3ccccc32)o1,2.7,0.71
O=C(NN=Cc1ccc(Cl)c([N+](=O)[O-])c1)c1cnccn1,6.2,0.64
CC1CCCC(=NNC(=O)Nc2ccccc2)C1 (stereo not given),7.3,0.69
Cc1cc(=O)[nH]c(N=C(N)Nc2ccc(Oc3ccccc3)cc2)n1,0.2,0.69
COc1ccc(C=NNC(=O)OC(C)(C)C)cc1OC,5.4,0.69
O=[N+]([O-])c1cc(C=NN2CCN(C3c4ccccc4-c4ccccc43)CC2)ccc1Cl,6.8,0.79
Cc1ccc(S(=O)(=O)NCC(=O)NN=Cc2ccccc2O)cc1,-24,0.65
CC(=NNc1nc2ccccc2s1)c1ccc2c(c1)OCO2,5.7,0.7
CC(=NNC(=O)C1CCCC1)c1ccc(Cl)c(Cl)c1,0.9,0.72
COc1ccc(C=NNC(=O)Nc2cccc3nsnc23)cc1,-194,0.72
O=C(CC(=O)NN=Cc1cccs1)NCc1ccccc1,2.9,0.72
Nc1nonc1-n1nnc(C(=O)NN=Cc2ccc(Cl)cc2Cl)c1CN1CCOCC1,7.6,0.73
COc1ccc(C=NNC(=O)C(=O)N2CCCC2)cc1OC,4.1,0.7
Cc1ccc(C(=O)NN=C/C=C/c2ccccc2[N+](=O)[O-])cn1,8.4,0.66
C[C@H](NC(=O)OC(C)(C)C)C(=O)NN=Cc1cccc2nccnc12,3.4,0.71
CC(/C=C/c1ccccc1F)=NNC(=O)c1ccccc1,6.5,0.65
Cc1cc(C)nc(NN=Cc2cccc([N+](=O)[O-])c2)n1,9.0,0.67
Cc1cccc(NC(=O)CON=Cc2ccc3c(c2)OCO3)c1,2.2,0.68
COc1c(Br)cc(Br)cc1C=Nn1c(C)nnc1C,3.6,0.71
CC12CCC(C(=O)N(CSC(=S)NN=Cc3ccccc3)C1=O)C2(C)C (stereo not given),3.4,0.65
# Following part
SMILES,UCH37 inh,E coli growth
CCOc1ccccc1NC(=O)C(=O)C=C(O)c1cc(OC)ccc1OC,5.5,0.63
CC(=NNc1nc(C(C)(C)C)cs1)c1ccccc1,6.3,0.68
CC(=NN1C(=O)c2ccccc2NC1c1ccco1)c1ccccc1O (stereo not given),-0.2,0.68
CCN(CC)c1ccc(C=NNC(=O)c2ccc3c(c2)OCCO3)cc1,-67,0.68
CCOc1cc(C=NNC(=O)c2ccc(NC(=O)CC)cc2)ccc1OC(=O)c1ccccc1,5.9,0.71
Cc1scc(C(=O)NN=Cc2ccc(Cl)s2)c1C,2.3,0.64
Cc1ccc(C=NNC(=O)NN(C)c2ncc(C(F)(F)F)cc2Cl)cc1,1.3,0.77
COc1cccc(C=NNC(=O)c2cnccn2)c1,7.6,0.67
CC(C)[C@@H](N)C(=O)NN=Cc1ccc2nccnc2c1,5.6,0.69
COc1cc(C=Nn2c(-c3cc(C)[nH]n3)n[nH]c2=S)ccc1O,5.8,0.71
N#CCC(=O)NN=Cc1ccc(OCc2ccccc2)cc1,1.1,0.66
O=C(O)CCC(=NNc1ccc(S(=O)(=O)N2CCOCC2)cc1[N+](=O)[O-])c1cccs1,20*,0.67
CC(Oc1cccc(F)c1)c1ccnc2nc(N=CN(C)C)nn12 (stereo not given),-80,0.66
Cc1ccc(OCCn2c(C)c(C=Nn3cnnc3)c3ccccc32)cc1,6.3,0.75
CN(N=Cc1ccccc1)C(=S)c1ccccc1,2.5,0.65
Cc1nc2ccccc2c(=O)n1N=C/C=C/c1ccccc1,8.5,0.66
CC(/C=C/c1ccccc1F)=NNC(=O)c1cccc(F)c1,5.3,0.69
COc1ccc(-c2[nH]ncc2C=NNC(=O)c2ccncc2)c(OC)c1,1.1,0.72
O=c1nc(NN=Cc2ccco2)cn[nH]1,4.1,0.7
CCN(CC)S(=O)(=O)c1cccc(C(=O)NN=Cc2ccc(O)c(O)c2O)c1,11,0.66
Cc1nnc(C)n1N=C/C=C/c1ccccc1,3.2,0.69
CC(=O)Oc1ccc2occ(C=Nc3cc(=O)[nH]c(=S)[nH]3)c(=O)c2c1,11,0.7
CC(=NNC(=O)c1ccco1)c1ccc(NC(=O)c2ccc(F)cc2)cc1,3.8,0.66
Cc1ccccc1C=NNc1nc2ccccc2c(=O)n1O,2.6,0.63

# Quoted from the listing:
# For E coli growth, `Cc1nnc(C)n1N=C/C=C/c1ccccc1` is listed with 0.69
# For UCH37 inh, `O=c1nc(NN=Cc2ccco2)cn[nH]1` is listed with 4.1

# Following part:
SMILES,UCH37 inh,E coli growth
CCOc1cc(C=NO)ccc1OCc1ccc(C)cc1,6.4,0.72
COc1ccc(CN(C(=O)CON=Cc2ccccc2)c2ccccc2C(=O)O)cc1,2.2,0.7
O=C1CCCC(=NNC(=O)c2ccc(CSc3cccc4cccnc34)cc2)C1,-86,0.63
CN=c1scc(C)n1N=Cc1ccc(O)cc1O,7.4,0.76
CC(=O)Nc1ccc(S(=O)(=O)N=C2SCCN2S(=O)(=O)c2ccc(NC(C)=O)cc2)cc1,0.8,0.69
O=C(NN=Cc1cccc([N+](=O)[O-])c1)C1COc2ccccc2O1 (stereo not given),4.6,0.68
Cc1ccc(C)c(-c2csc(NN=Cc3ccco3)n2)c1,-0.8,0.74
CC(=NNC(=O)c1ccn[nH]1)c1cn(C)nc1C,4.1,0.72
COc1ccc(C(=NO)c2ncc(C(F)(F)F)cc2Cl)cc1,1.8,0.68
Cc1ccc(S(=O)(=O)NN=Cc2ccc(OCC(=O)N3CCOCC3)cc2)cc1,3.1,0.69
CC(O)C(=O)NN=Cc1cccc2ccccc12 (stereo not given),4.6,0.69
CC(CC(=O)NC1CCCCC1)=NNC(=O)c1ccc(Br)cc1,1.6,0.68
CCCCNC(=O)N(O)C1N(N=Cc2ccccc2O)C(=S)SC1(C)C (stereo not given),3.1,0.69
Cc1ccc(C=Nc2sc3c(c2C(N)=O)CCCC3)o1,-47,0.7
O=c1nccc(NN=Cc2ccccc2)[nH]1,2.4,0.62
CC1(C)CC(=O)CC(=NNC(=O)C2CC2c2ccccc2)C1 (stereo not given),0.6,0.64
O=S(=O)(c1cnccc1N1CCN(N=Cc2ccccc2)CC1)N1CCCCC1,2.5,0.79
COc1cccc2c1OCCC2=NNC(=O)C(C)Oc1ccc([N+](=O)[O-])cc1 (stereo not given),5.2,0.7
Cc1csc(=NN=C2CCCCC2)n1Cc1ccco1,4.6,0.64
Cc1ccc(C=NNC(=O)Cc2cccs2)o1,2.1,0.67
COc1ccc(S(=O)(=O)NN=Cc2ccc(OC)c(COc3ccc(C)cc3[N+](=O)[O-])c2)cc1,1.3,0.76
Cc1cc(C(=O)NN=Cc2ccc(O)c([N+](=O)[O-])c2)n[nH]1,19,0.66
COc1cccc(C=NNC(=O)c2ccc(=O)n(C)c2)c1OC,-1.3,0.65
COc1cccc(-c2cc(C(=O)NN=Cc3cccc(OC)c3OC)c3ccccc3n2)c1,-4.1,0.71
CC1CCc2c(sc(N=Cc3cccnc3)c2C(N)=O)C1 (stereo not given),-14,0.68
Oc1c(Cl)cc(Cl)cc1C=Nc1ncn[nH]1,2.5,0.65
O=c1cnnc(NN=Cc2c[nH]c3ccccc23)[nH]1,5.5,0.71
COc1cccc(-c2cc(C(=O)NN=Cc3ccc(OC)c(COC(C)=O)c3)c3ccccc3n2)c1,-6.4,0.78
Cc1nc(C#N)c(NN=Cc2cccc(Cl)c2)o1,3.7,0.72
C/C(C=NNC(=O)CSc1nnc(SCc2ccccc2)s1)=C\c1ccco1,6.2,0.68
O=C1CS/C(=N/N=Cc2cccs2)N1,14,0.65
COc1ccc(C=NOCc2nc3c4c(ncn3n2)Oc2ccc3ccccc3c2C4c2ccccc2)cc1 (stereo not given),1.0,0.68
FC(F)(F)c1cccc(C=NNC(=S)NC2CCCCC2)c1,-0.4,0.75
N#CC(=NNc1ccc(OC(F)(F)F)cc1)C(N)=S,5.4,0.51
Cc1ccc2nc(C)c(C(=O)NN=Cc3cccs3)cc2c1,3.3,0.7
CC1Cc2ccccc2N1C(=O)CON=Cc1ccc(OC(F)F)cc1 (stereo not given),0.1,0.68
COc1cc(OC)c(OC)cc1C=NNc1nc2ccccc2[nH]1,-12,0.66
CCCCNC(=O)C(=O)NN=Cc1ccc(OCC(=O)Nc2cccc(OC)c2)c(OC)c1,-161,0.65
O=C(CN1CCCc2ccccc21)NN=Cc1ccc(O)cc1O,-15,0.67
CON=Cc1cccn1-c1nccc(OC)c1C#N,-2.0,0.66
O=C(COc1cccc2cccnc12)NN=C1SCC(=O)N1CCc1ccccc1,2.3,0.69

# By substructure: those above containing a thiophene ring, fused or not (14)
SMILES,UCH37 inh,E coli growth
O=C1NCC(c2ccccc2)C1C(=O)NN=Cc1ccc(Cl)s1 (stereo not given),4.4,0.69
Clc1ccc(CONC=Nc2ncnc3sccc23)c(Cl)c1,0.1,0.71
CC(=NNC(=O)c1ccccc1O)c1ccc(Br)s1,15,0.6
CC1=CCC(C(=O)O)(C(=O)NN=Cc2cccs2)C(c2ccc(F)cc2)C1 (stereo not given),1.9,0.68
Cc1ccc(C=NNC(=O)c2c[nH]c3ccccc23)s1,2.6,0.66
O=C(NN=Cc1ccncc1)c1cc(-c2ccc(Br)s2)[nH]n1,1.0,0.58
O=C(CC(=O)NN=Cc1cccs1)NCc1ccccc1,2.9,0.72
Cc1scc(C(=O)NN=Cc2ccc(Cl)s2)c1C,2.3,0.64
O=C(O)CCC(=NNc1ccc(S(=O)(=O)N2CCOCC2)cc1[N+](=O)[O-])c1cccs1,20*,0.67
Cc1ccc(C=Nc2sc3c(c2C(N)=O)CCCC3)o1,-47,0.7
Cc1ccc(C=NNC(=O)Cc2cccs2)o1,2.1,0.67
CC1CCc2c(sc(N=Cc3cccnc3)c2C(N)=O)C1 (stereo not given),-14,0.68
O=C1CS/C(=N/N=Cc2cccs2)N1,14,0.65
Cc1ccc2nc(C)c(C(=O)NN=Cc3cccs3)cc2c1,3.3,0.7
